High-throughput results as filed in PubChem.
DUX4 inh: DUX4-mediated transcription inhibition; 293T-iDUX4 ZSCAN4-Gaussia luciferase reporter, 24 h; stronger effect = lower value; activity change, negative = inhibition, % (test concentration not listed); hit rate 0.8% among 37,000; AID 1224904;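 active = -10% or lower and over 25 points stronger than a control reporter; inconclusive = -10% or lower with a smaller gap; inactive = above -10%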;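 note: 0% = median of neutral control wells and -100% = median of positive control wells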
DUX4 inh difference: recorded beside DUX4 inh, whose call it bears; Gaussia minus Italica difference, %; measured here: selective DUX4 reporter inhibition;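 worked out from the two reporters; negative = selective loss of the DUX4 reporter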
DUX4 inh control: also measured in DUX4 inh; calls as there; activity change, negative = inhibition, %; measured here: Italica tet-on control reporter;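 0 = neutral control and -100 = positive control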
Starred values were filed as active, the others as inactive; u = inconclusive; x = not tested or not shown.

DUX4 inh,DUX4 inh difference,compound,DUX4 inh control
1,-2,N#C[C@H]1[C@@H](c2ccccc2)[C@H](CO)N1C(=O)Cc1ccccn1,2.9
-5,-2,O=C(CN1CCOCC1)N1CC(=O)N2[C@@H](CO)[C@H](c3ccc(/C=C/c4ccccc4)cc3)[C@@H]2C1,-2.5
-4,-1,CCCNC(=O)[C@H]1[C@H](CO)[C@H]2Cn3c(ccc(-c4cccc(OC)c4)c3=O)[C@H]2N1Cc1nccs1,-2.6
-1,-2,N#C[C@H]1[C@@H](c2ccc(C#CC3CCCC3)cc2)[C@H](CO)N1S(=O)(=O)c1ccccc1,0.9
12,3,COc1ccc(-c2ccc([C@H]3[C@@H](CO)N4C(=O)CN(C(=O)c5ccccc5)C[C@@H]34)cc2)cc1,8.7
-4,-9,CO[C@@H]1CN(C)C(=O)c2ccc(NC(=O)c3ccc(F)cc3)cc2OC[C@H](C)N(C)C[C@@H]1C,5.0
0,-1,Cc1ccc(S(=O)(=O)N(C)C[C@H]2Oc3ncc(Br)cc3C(=O)N([C@H](C)CO)C[C@@H]2C)cc1,0.5
-1,-2,O=C(c1ccccc1F)N1C[C@H]2[C@@H](c3ccccc31)[C@H](CO)N2C(=O)c1ccc(F)cc1,1.2
-2,-2,CO[C@@H](CN(C)S(=O)(=O)c1ccc(C)cc1)[C@H](C)CN(C(=O)Nc1ccccc1F)[C@H](C)CO,0.3
0,0,CNC[C@H]1Oc2ccc(NC(=O)NC3CCCCC3)cc2CC(=O)N([C@@H](C)CO)C[C@H]1C,0.9
5,1,CCCNC(=O)[C@H]1[C@H](CO)[C@H]2Cn3c(ccc(/C=C/c4ccccc4)c3=O)[C@@H]1N2C(=O)C1CCC1,4.0
9,6,O=C(O)C[C@H]1CC[C@@H]2[C@H](COC[C@H](O)CN2S(=O)(=O)c2ccc(Oc3ccccc3)cc2)O1,3.5
-3,0,COc1ccc(NC(=O)N(C)C[C@@H]2Oc3c(NC(=O)CCCCCC(=O)Nc4ccccc4N)cccc3C(=O)N([C@@H](C)CO)C[C@H]2C)cc1,-3.7
-3,-12,N#Cc1ccc(-c2ccc(C3[C@H]4CNC[C@@H]3N4C(=O)Nc3ccccc3F)cc2)cc1 (stereo partly specified),8.9
9,7,COc1cccc(-c2ccc([C@H]3[C@@H](CO)N4C(=O)CNC[C@@H]34)cc2)c1,2.3
0,2,O=C(C[C@@H]1CC[C@H]2[C@@H](COC[C@@H](O)CN2C(=O)Nc2ccc(F)cc2)O1)NCC1CC1,-2.2
7,4,C[C@H](CO)N1C[C@H](C)[C@@H](CN(C)C(=O)Nc2ccccc2F)OCc2cnnn2CCCC1=O,3.6
-3,-3,C[C@@H]1CCCCO[C@H](CN(C)S(=O)(=O)c2ccccc2)[C@@H](C)CN([C@@H](C)CO)C(=O)c2cc(NS(C)(=O)=O)ccc2O1,-0.5
6,1,CS(=O)(=O)N1[C@@H]2c3ccc(C4=CCCC4)c(=O)n3C[C@H]1[C@H](CO)[C@H]2C(=O)N1CCCCC1,5.0
-3,-6,CN1[C@@H]2Cn3c(ccc(-c4ccccc4F)c3=O)[C@H]1[C@@H](C(=O)NCc1ccccn1)[C@@H]2CO,2.6

Of the compounds above, three have a cyano group:
DUX4 inh,DUX4 inh difference,compound,DUX4 inh control
1,-2,N#C[C@H]1[C@@H](c2ccccc2)[C@H](CO)N1C(=O)Cc1ccccn1,2.9
-1,-2,N#C[C@H]1[C@@H](c2ccc(C#CC3CCCC3)cc2)[C@H](CO)N1S(=O)(=O)c1ccccc1,0.9
-3,-12,N#Cc1ccc(-c2ccc(C3[C@H]4CNC[C@@H]3N4C(=O)Nc3ccccc3F)cc2)cc1 (stereo partly specified),8.9

Remaining list, next part.
DUX4 inh,DUX4 inh difference,compound,DUX4 inh control
3,4,Cc1noc(C)c1NC(=O)Nc1ccc2c(c1)C(=O)N(C)[C@@H]1CC[C@H](CC(=O)N[C@@H]3CCN(Cc4ccccc4)C3)O[C@@H]1CO2,-0.4
4,-4,COc1ccc(-c2ccc([C@@H]3[C@H]4CN(C(=O)Cc5ccccn5)CC(=O)N4[C@H]3CO)cc2)cc1,7.7
-2,-1,CC(C)CN(C[C@H]1N[C@H](CO)[C@H]1c1ccccc1)C(=O)CN(C)C,-0.9
-4,-3,COc1ccc2c3c([nH]c2c1)[C@@H](CO)N(C(C)=O)CC31CN(C(=O)Nc2ccc(F)cc2F)C1,-0.7
3,0,CS(=O)(=O)N1[C@H](C#N)[C@H](c2ccc(-c3ccccc3F)cc2)[C@H]1CO,3.4
11,8,CC(=O)N1[C@H](CO)[C@@H](c2ccccc2)C12CN(C(=O)c1ccccn1)C2,3.1
1,-3,O=C(C1CCCCC1)N1[C@@H](CO)[C@@H]2c3ccccc3NC[C@@H]21,4.1
7,-2,CCNC(=O)[C@H]1[C@H](CO)[C@H]2Cn3c(ccc(-c4ccccc4)c3=O)[C@H]2N1Cc1cccnc1,9.0
11,13,COCC(=O)N1CC2(C1)[C@@H](c1ccc(-c3cccc(C)c3)cc1)[C@@H](CO)N2C(=O)C1CC1,-2.1
0,-4,C[C@@H]1CCCCO[C@H](CN(C)Cc2ccc(Cl)c(Cl)c2)[C@H](C)CN([C@@H](C)CO)C(=O)c2cc(NC(=O)Nc3ccc4c(c3)OCO4)ccc2O1,4.1
3,3,O=C([C@@H]1[C@@H](CO)[C@@H]2Cn3c(ccc(-c4ccccc4)c3=O)[C@@H]2N1CCC(F)(F)F)N1CCOCC1,0.0
1,-2,CN(C[C@@H]1N[C@H](CO)[C@@H]1c1ccc(C#CCC2CCCC2)cc1)S(C)(=O)=O,3.2
-2,-6,O=C(NC1CCC1)[C@@H]1[C@@H](CO)[C@@H]2Cn3c(ccc(-c4ccncc4)c3=O)[C@@H]2N1CC1CC1,4.3
-2,-3,CO[C@@H]1CN(C)C(=O)c2ccc(NC(=O)Nc3cccc(F)c3)cc2OC[C@@H](C)N(C(=O)Nc2c(C)noc2C)C[C@H]1C,0.0
-2,0,CO[C@@H]1CN(C)C(=O)c2cc(NS(C)(=O)=O)ccc2OC[C@H](C)N(CCC(F)(F)F)C[C@@H]1C,-1.7
-4,-1,Cc1cc(C(=O)Nc2ccc3c(c2)C(=O)N(C)[C@H]2CC[C@H](CC(=O)Nc4ccc(Cl)cc4)O[C@@H]2CO3)no1,-3.9
-3,-2,CCCC(=O)Nc1ccc2c(c1)OC[C@H](C)N(Cc1nccs1)C[C@H](C)[C@@H](OC)CN(C)C2=O,-0.9
3,2,C/C=C/c1ccc2c(c1)O[C@H](CN(C)C(=O)C1CCCCC1)[C@@H](C)CN([C@H](C)CO)S2(=O)=O,0.7
0,2,C[C@H]1CN([C@@H](C)CO)C(=O)c2cc(NC(=O)CCN3CCOCC3)ccc2O[C@H]1CN(C)CC1CCCCC1,-2.3
2,0,C[C@H](O)C#Cc1cnc2c(c1)C(=O)N([C@@H](C)CO)C[C@@H](C)[C@@H](CN(C)Cc1cncnc1)O2,1.4
-5,-13,COc1cccc(NC(=O)Nc2ccc3c(c2)C(=O)N(C)C[C@H](OC)[C@H](C)CN(C)[C@H](C)CO3)c1,8.0
-1,-4,CCNC(=O)Nc1ccc2c(c1)C(=O)N(C)[C@@H]1CC[C@H](CC(=O)NCCN3CCCC3)O[C@@H]1CO2,2.7
-1,-1,COc1ccc(S(=O)(=O)N(C)C[C@@H]2OCc3ccccc3-c3ccccc3C(=O)N([C@@H](C)CO)C[C@H]2C)cc1,-0.4
-1,1,C/C=C/c1ccc2c(c1)O[C@@H](CN(C)C(=O)NCCC)[C@@H](C)CN([C@@H](C)CO)S2(=O)=O,-1.7
2,-3,C[C@H](CO)N1C[C@H](C)[C@@H](CN(C)C(=O)c2cccc(F)c2)Oc2cc(C#CC3CC3)ccc2S1(=O)=O,5.6
5,0,CO[C@@H]1CN(C)C(=O)c2ccc(NC(=O)C3CCC3)cc2OC[C@@H](C)N(C(=O)CN(C)C)C[C@H]1C,4.6
-1,-5,CO[C@@H]1CC[C@@H]2CCN(C)C(=O)[C@@H](C)CN(C)C(=O)c3cc(C#N)ccc3OC[C@@H]1O2,3.7
17,17,C[C@@H]1CN([C@@H](C)CO)C(=O)c2ccccc2-c2ccccc2CO[C@@H]1CN(C)S(=O)(=O)c1ccc(C#N)cc1,-0.3
3,6,C[C@@H]1CN([C@@H](C)CO)S(=O)(=O)c2ccc(-c3ccc(F)cc3)cc2O[C@H]1CN(C)Cc1ccccc1C(=O)O,-3.1
-4,1,C[C@H](CO)N1C[C@H](C)[C@H](CN(C)S(=O)(=O)c2ccc(-c3ccccc3)cc2)OCc2cnnn2CCCC1=O,-4.6
-1,-1,CN1C(=O)c2cc(NC(=O)c3ccc(F)c(F)c3)ccc2OC[C@H]2O[C@@H](CC(=O)N[C@H]3CCN(Cc4ccccc4)C3)CC[C@H]21,0.0
-1,-2,O=C(Nc1ccccc1)[C@@H]1[C@@H](CO)[C@@H]2Cn3c(cccc3=O)[C@H]1N2C(=O)c1ccccc1,1.2
4,2,COCC#Cc1cnc2c(c1)C(=O)N([C@H](C)CO)C[C@@H](C)[C@@H](CN(C)C(=O)CCN1CCCCC1)O2,1.7
4,2,Cc1ccc(S(=O)(=O)N2C[C@H](O)COC[C@H]3O[C@H](CC(=O)NCCN4CCCCC4)CC[C@@H]32)cc1,2.2
0,-13,COc1ccc(C#Cc2ccc([C@@H]3[C@H](CO)N4CCCCN(Cc5ccncc5)C[C@@H]34)cc2)cc1,13
-4,-1,C[C@H]1CN([C@@H](C)CO)C(=O)c2cc(-c3cccc(C(=O)N(C)C)c3)cnc2O[C@H]1CN(C)C(=O)Cc1ccccn1,-3.1
0,6,CC(C)CC#Cc1ccc([C@@H]2[C@@H](CO)N3C(=O)CN(C(=O)Nc4cc(F)ccc4F)C[C@H]23)cc1,-6.8
-1,-2,Cc1noc(C)c1NC(=O)Nc1ccc2c(c1)C(=O)N([C@H](C)CO)C[C@@H](C)[C@H](CN(C)S(=O)(=O)c1ccc(F)cc1)O2,1.2
6,2,CO[C@@H]1CN(C)C(=O)c2ccc(NC(=O)Cc3ccccc3)cc2OC[C@H](C)N(C(C)=O)C[C@H]1C,3.4
u,x,C[C@H]1CN([C@@H](C)CO)S(=O)(=O)c2ccc(/C=C/c3ccccc3)cc2O[C@@H]1CN(C)C(=O)Nc1cccc(F)c1,x

An excerpt from above in order of the DUX4 inh control value, descending:
DUX4 inh,DUX4 inh difference,compound,DUX4 inh control
-1,-5,CO[C@@H]1CC[C@@H]2CCN(C)C(=O)[C@@H](C)CN(C)C(=O)c3cc(C#N)ccc3OC[C@@H]1O2,3.7
-1,-2,Cc1noc(C)c1NC(=O)Nc1ccc2c(c1)C(=O)N([C@H](C)CO)C[C@@H](C)[C@H](CN(C)S(=O)(=O)c1ccc(F)cc1)O2,1.2
-1,1,C/C=C/c1ccc2c(c1)O[C@@H](CN(C)C(=O)NCCC)[C@@H](C)CN([C@@H](C)CO)S2(=O)=O,-1.7

Ordered by heavy-atom count (falling): some entries from above.
DUX4 inh,DUX4 inh difference,compound,DUX4 inh control
-1,-2,Cc1noc(C)c1NC(=O)Nc1ccc2c(c1)C(=O)N([C@H](C)CO)C[C@@H](C)[C@H](CN(C)S(=O)(=O)c1ccc(F)cc1)O2,1.2
6,2,CO[C@@H]1CN(C)C(=O)c2ccc(NC(=O)Cc3ccccc3)cc2OC[C@H](C)N(C(C)=O)C[C@H]1C,3.4
-1,-2,O=C(Nc1ccccc1)[C@@H]1[C@@H](CO)[C@@H]2Cn3c(cccc3=O)[C@H]1N2C(=O)c1ccccc1,1.2

(continued)
DUX4 inh,DUX4 inh difference,compound,DUX4 inh control
u,x,COc1cccc(C#Cc2ccc([C@@H]3[C@H]4CN(S(=O)(=O)c5ccccc5C)CC(=O)N4[C@H]3CO)cc2)c1,x
5,27,CO[C@@H]1CC[C@@H]2CCN(C)C(=O)[C@H](C)CN(C)C(=O)c3cccc(C#N)c3OC[C@H]1O2,-22
-2,-3,O=C(C[C@H]1CC[C@H]2[C@@H](COC[C@H](O)CN2C(=O)Nc2ccc(F)cc2)O1)NCC1CC1,0.9
12,6,OC[C@@H]1[C@H](c2ccc(-c3ccccc3F)cc2)[C@@H]2CN(Cc3ccncc3)CCCCN12,5.7
u,x,COc1ccc2c3c([nH]c2c1)[C@H](CO)N(C)CC31CCN(S(=O)(=O)c2cccc(F)c2)CC1,x
1,-1,CC=Cc1ccc2n(c1=O)C[C@H]1[C@H](CO)[C@@H](C(=O)NCc3ccc4c(c3)OCO4)[C@@H]2N1C(C)=O (mixture of isomers),2.0
-1,-9,O=C1CN(S(=O)(=O)Cc2ccccc2)C[C@H]2[C@@H](c3ccc(C#CCC4CCCC4)cc3)[C@H](CO)N12,8.0
u,x,OC[C@@H]1[C@@H](c2ccc(-c3ccc(F)cc3)cc2)[C@H]2CN(CCC(F)(F)F)CCCCN12,x
9,-3,COc1cccc(C#Cc2ccc3c(c2)[C@@H]2[C@@H](CCN2S(=O)(=O)c2ccc(C)cc2)[C@@H](CO)N3)c1,12
0,1,C[C@@H]1CCCCO[C@H](CN(C)C(=O)c2ccncc2)[C@H](C)CN([C@@H](C)CO)C(=O)c2cc(NC(=O)NC3CCCCC3)ccc2O1,-1.1
1,0,CO[C@H](CN(C)Cc1nccs1)[C@H](C)CN([C@H](C)CO)S(=O)(=O)c1ccc(C)cc1,0.8
-1,10,C[C@@H]1CN([C@H](C)CO)C(=O)c2c(c3ccccc3n2C)-c2ccccc2CO[C@@H]1CN(C)C(=O)Nc1ccc(-c2ccccc2)cc1,-10

A portion of the library; count on the stated rates, not on these rows.
